Ecoli growth: inhibitors of Escherichia coli growth; OD600, 23 h; stronger effect = lower value; OD600 absorbance (concentration not given with the values); 330,000 tested, 0.21% active;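 active = OD600 absorbance below the run mean of sample wells minus 3.6 SD, in any replicate, cut at about 0.56 in these data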;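 note: stock transfer was 300 nL into about 60 µL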
T cruzi repl: T. cruzi replication inhibition; T. cruzi beta-gal in NIH3T3, luminescence, 90 h; inhibition, % (concentration not given with the values); 300,000 tested, 1.4% active; AID 1885;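 active = mean inhibition across valid replicates above about 55%, limit read from the data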;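 note: signal also drops with host cell toxicity which is not excluded here; 0% = plate median of DMSO wells and 100% = zero luminescence signal; higher percent means less beta-gal luminescence so fewer parasites; stock transfer was 50 nL into about 50 µL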
AF4-AF9 inh: inhibitors of human MLL-AF4/AF9 interaction. P42568. AlphaScreen, biotin-AF4 peptide binding to FLAG-AF9. inhibition, % at 10 µM. 350,000 tested, 0.47% active. AID 651704;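 active = every replicate reaching a set inhibition limit, whatever the replicate mean, cut at about 25% in these data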;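 note: 0% = plate neutral control median and 100% = total signal loss; the record names both 10 and 1 µM as test concentration; the first replicate is given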
Target sequence (P42568 whole entry, looked up): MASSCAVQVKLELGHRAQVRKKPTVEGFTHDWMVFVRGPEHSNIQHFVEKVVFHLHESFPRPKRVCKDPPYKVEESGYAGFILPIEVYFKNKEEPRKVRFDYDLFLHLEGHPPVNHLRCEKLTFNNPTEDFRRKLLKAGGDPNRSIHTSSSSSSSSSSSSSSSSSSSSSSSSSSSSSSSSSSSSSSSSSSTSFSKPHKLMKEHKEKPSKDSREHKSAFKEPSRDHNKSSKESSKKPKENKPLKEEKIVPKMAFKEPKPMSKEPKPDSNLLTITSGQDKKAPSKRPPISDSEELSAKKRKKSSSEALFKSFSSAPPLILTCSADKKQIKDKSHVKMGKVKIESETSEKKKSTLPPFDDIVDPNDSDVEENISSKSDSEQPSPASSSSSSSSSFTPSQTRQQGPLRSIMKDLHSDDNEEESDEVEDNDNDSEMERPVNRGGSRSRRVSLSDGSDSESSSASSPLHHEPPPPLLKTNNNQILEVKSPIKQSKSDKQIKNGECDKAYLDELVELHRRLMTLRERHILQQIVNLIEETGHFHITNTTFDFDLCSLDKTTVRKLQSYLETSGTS
Bfl-1 A1 inh: inhibitors of the anti-apoptotic protein A1, read as caspase activation | 330,000 tested, 0.066% active | MEF A1-2A-BIM cells, Caspase-Glo 3/7 luminescence, 3 h; percent of clofoctol response, vehicle zero | AID 2462 | caspase activation, % (test concentration not listed);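 active = over half of replicate activation scores above 10%, or exactly half above 10 with the replicate mean above 10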;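 note: wells of about 30 µL received 50 nL stock; many hits fall short of the cut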
Beta apoptosis: beta cell apoptosis inhibition; INS-1E cytokine-induced death, ATP luminescence, 48 h; percent of positive-control rescue, neutral wells zero; 300,000 tested, 0.8% active; protection from apoptosis, % (test concentration not listed);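 active = all replicates at 75% or more, or half of them and the mean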;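 note: 0% = cytokine-treated negative control wells and 100% = positive control rescue; higher means more ATP so stronger rescue from cytokine killing; wells of about 40 µL received 100 nL stock; the first replicate is given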
UCH37 DUB inh: inhibitors of human deubiquitinating enzyme UCH37. Q9Y5K5. purified proteasome/UCH37, Ub-AMC cleavage fluorescence. inhibition, % (no concentration beside the values). 330,000 tested, 0.33% active;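 active = mean of two replicates above 20%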;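 note: 0% = compound-free wells with enzyme and 100% = wells lacking proteasome; stock transfer was 100 nL into about 20 µL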
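Reagent: Ub-AMC substrate; assay system: Proteasome-associated human UCH37 deubiquitinase; controls: no-proteasome and no-compound wells; read-out: % inhibition of Ub-AMC cleavage fluorescence; timing: 30 min preincubation with enzyme, 25 min cleavage at room temperature; signal: AMC fluorescence from Ub-AMC cleavage, excitation 355 nm, emission 460 nm; buffer or medium: Tris-HCl pH 7.4 plus ovalbumin, ATP-MgCl2, DTT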
rRNA inh HTS: inhibitors of bacterial rRNA selective over humanized ribosomes. AID 720706. GFP signal change (wild-type ribosome), % (no concentration beside the values). 350,000 tested, 1.6% active. E. coli WT GFP vs humanized-ribosome RFP mutants, fluorescence, 24 h; stronger effect = lower value; DMSO median 0, no signal -100;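 active = significant combined selectivity score with lowered wild-type GFP, culture density cut under 30%, mutant RFP and density less affected; inactive = any of these conditions unmet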; note: one replicate is shown; some compounds called inactive have numbers as strong as hits
FGF22 binding: shifts melting point of recombinant human FGF22 | calls only at 9.99 µM | recombinant FGF22 thermal shift, SYPRO orange fluorescence; percent of sucrose octasulfate shift, DMSO zero | 340,000 tested, 1.5% active | AID 651658 | Q9HCT0;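 active = melting point raised past a set limit in the mean and every replicate; three in four hits are not shown here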
Target sequence (Q9HCT0 whole entry, looked up): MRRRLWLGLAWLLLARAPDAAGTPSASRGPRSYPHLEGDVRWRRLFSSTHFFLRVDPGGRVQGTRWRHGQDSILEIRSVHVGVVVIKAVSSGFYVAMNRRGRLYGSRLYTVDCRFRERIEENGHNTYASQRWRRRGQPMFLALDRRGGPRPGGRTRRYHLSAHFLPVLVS
rRNA inh HTS OD600: second read-out of rRNA inh HTS, no call of its own (marks repeat the call); OD600 change, %; measured here: OD600 growth;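 optical density of the mix in the first replicate; 0 = DMSO median and -100 = no signal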
rRNA inh HTS RFP: further read-out of rRNA inh HTS, marked with its call; RFP signal change, %; measured here: RFP humanized mutant strains;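 first replicate; 0 = DMSO median and -100 = no signal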
* = called active by the depositor; i = inactive; . = no result given.

SMILES	Ecoli growth	T cruzi repl	AF4-AF9 inh	Bfl-1 A1 inh	Beta apoptosis	UCH37 DUB inh	rRNA inh HTS	rRNA inh HTS OD600	rRNA inh HTS RFP	FGF22 binding
Cc1ccc(C(=O)N2CCN(c3ccc(NC(=O)c4ccc(Br)o4)cc3)CC2)cc1	0.7	9	.	-1.5	63	0.7	.	.	.	.
COc1ccc(NC(=O)COc2ccccc2)c(OC)c1	0.7	20	.	-2.2	1	5.0	.	.	.	.
O=C(COC(=O)CC1CC2CCC1C2)Nc1cc([N+](=O)[O-])ccc1F (centres undefined)	0.73	-11	4.9	0.1	-6	2.8	-10	0	-1.4	i
COc1ccc(OC(C)C(=O)NCc2cccnc2)cc1 (centres undefined)	0.71	-6	.	0.2	-19	1.6	.	.	.	.
COc1ccc(S(=O)(=O)/C(C#N)=C/Nc2cccc(F)c2)cc1	0.67	-13	0.5	1.3	-2	6.0	1	6	-2.6	i
CCOc1ccc(S(=O)(=O)NN2Cc3ccccc3C2=N)cc1	0.67	-15	0.2	0.9	-3	1.7	3	7	-3.7	i
Cc1c(Cl)cccc1NC(=O)NNC(=O)CCc1ccccc1	0.72	-5	-0.6	1.1	2	3.9	3	-2	3.0	i
O=C1C(Cl)=C(NCC2CCCO2)C(=O)N1CCc1ccccc1 (centres undefined)	0.67	-10	.	0.1	-12	-5.3	.	.	.	.
CSc1ccccc1NC(=O)C(=O)c1c[nH]c2ccccc12	0.71	1	-7.8	-0.3	11	3.8	-4	10	8.2	i
Cn1c2c(c(=O)n(C)c1=O)CN(CCCN1CCOCC1)CN2	0.67	-18	.	0.7	2	0.2	.	.	.	.
NS(=O)(=O)c1cc2c(cc1Cl)NC(c1ccccc1OCC(=O)O)NS2(=O)=O (centres undefined)	0.69	-8	0.5	-0.6	1	3.5	7	10	-1.2	i
CC(=O)N1CC=CC1(CC(C)C)C(=O)NCCN1CCOCC1 (centres undefined)	0.71	-5	3.9	0.0	1	3.4	-2	5	1.5	i

Some of these compounds in order of SMILES length, high to low:
SMILES	Ecoli growth	T cruzi repl	AF4-AF9 inh	Bfl-1 A1 inh	Beta apoptosis	UCH37 DUB inh	rRNA inh HTS	rRNA inh HTS OD600	rRNA inh HTS RFP	FGF22 binding
Cc1ccc(C(=O)N2CCN(c3ccc(NC(=O)c4ccc(Br)o4)cc3)CC2)cc1	0.7	9	.	-1.5	63	0.7	.	.	.	.
NS(=O)(=O)c1cc2c(cc1Cl)NC(c1ccccc1OCC(=O)O)NS2(=O)=O (centres undefined)	0.69	-8	0.5	-0.6	1	3.5	7	10	-1.2	i
O=C(COC(=O)CC1CC2CCC1C2)Nc1cc([N+](=O)[O-])ccc1F (centres undefined)	0.73	-11	4.9	0.1	-6	2.8	-10	0	-1.4	i
COc1ccc(S(=O)(=O)/C(C#N)=C/Nc2cccc(F)c2)cc1	0.67	-13	0.5	1.3	-2	6.0	1	6	-2.6	i
O=C1C(Cl)=C(NCC2CCCO2)C(=O)N1CCc1ccccc1 (centres undefined)	0.67	-10	.	0.1	-12	-5.3	.	.	.	.
CCOc1ccc(S(=O)(=O)NN2Cc3ccccc3C2=N)cc1	0.67	-15	0.2	0.9	-3	1.7	3	7	-3.7	i
CSc1ccccc1NC(=O)C(=O)c1c[nH]c2ccccc12	0.71	1	-7.8	-0.3	11	3.8	-4	10	8.2	i
Cc1c(Cl)cccc1NC(=O)NNC(=O)CCc1ccccc1	0.72	-5	-0.6	1.1	2	3.9	3	-2	3.0	i
COc1ccc(NC(=O)COc2ccccc2)c(OC)c1	0.7	20	.	-2.2	1	5.0	.	.	.	.

Continuation.
SMILES	Ecoli growth	T cruzi repl	AF4-AF9 inh	Bfl-1 A1 inh	Beta apoptosis	UCH37 DUB inh	rRNA inh HTS	rRNA inh HTS OD600	rRNA inh HTS RFP	FGF22 binding
N/C(=N\OC(=O)CC(c1ccccc1)c1ccccc1)c1cccnc1	0.69	8	-0.2	-0.3	2	-1.4	-20*	-7.5*	1.3*	.
O=C(COC(=O)CNC(=O)C12CC3CC(CC(C3)C1)C2)Nc1ccccc1	0.63	-5	.	0.2	-6	4.3	.	.	.	.
O=c1c2cnn(-c3ccccc3)c2nnn1Cc1ccccn1	0.72	-8	.	-0.2	2	0.0	.	.	.	.
CCOC(=O)c1sc(NC(=O)C(OC(C)=O)c2ccccc2)nc1C (centres undefined)	0.69	4	.	-0.6	7	2.6	.	.	.	.
COc1ccc(/C=N/NC(=O)c2cc(C(C)(C)C)[nH]n2)cc1COc1ccc(F)cc1F	.	2	0.6	-1.4	4	.	-24*	-11*	-1.3*	i
O=C(c1cccc(Br)c1)N1CCN(c2cnn(-c3ccccc3)c(=O)c2Cl)CC1	0.63	3	11	0.5	6	0.2	13	6	2.7	i
COc1ccc(C2/C(=C(/O)c3ccccc3)C(=O)C(=O)N2CCN2CCOCC2)c(OC)c1 (centres undefined)	0.74	3	.	0.2	1	6.6	.	.	.	.
COc1cccc(C2CCCN2Cc2nc(-c3cnccn3)no2)c1 (centres undefined)	0.68	-7	-2.1	-0.4	2	0.5	8	12	13	i
Cc1ccc(NC(=O)CCc2c(C)nn(-c3ccc(N4CCOCC4)nn3)c2C)cc1F	0.65	3	0.7	0.0	2	1.4	-5	-2	-1.2	i
CC(C)OC(=O)NC(Nc1ccccc1C(=O)O)(C(F)(F)F)C(F)(F)F	0.68	-2	4.2	0.5	4	-39	12	15	14	i
CCN(CCCCCN(C)C)Cc1cc2ccccc2o1	.	55*	-5.0	0.1	.	.	8	-3	0.1	i
Fc1cccc(Cl)c1Cn1nnc(-c2ccc3c(c2)OCO3)n1	0.7	9	.	0.1	6	3.7	.	.	.	.
CCN1CCCC1CNC(=O)c1cc2c(-c3ccc(Cl)cc3)nn(C)c2s1 (centres undefined)	0.75	30	.	-0.5	.	-229	.	.	.	.
O=C(Oc1ccc(-c2nnco2)cc1)c1ccc(Br)o1	0.67	-6	0.0	0.5	5	1.5	3	4	-0.4	i
Cc1n(C)c2cc(Cl)ccc2[n+]1Cc1ccccc1	0.7	1	0.1	-0.5	4	1.8	9	12	-1.2	i
COc1ccc(N2C(=O)CSC23C(=O)N2c4c(cccc43)C(C)=CC2(C)C)cc1 (centres undefined)	0.68	.	-1.0	0.4	2	3.5	-23	-5	22	i
O=C(NCC(=O)N1CCCCC1)c1ccc(Cl)cc1Cl	0.7	-13	.	-1.2	.	-0.5	.	.	.	.
Cc1c(NC(=O)c2cnn3c2NC(c2ccc(Br)cc2)CC3C(F)(F)F)c(=O)n(-c2ccccc2)n1C (centres undefined)	0.7	6	.	1.3	-8	2.7	.	.	.	.
CCn1c(CN2CCN(C(=O)c3ccco3)CC2)nc2c1c(=O)n(C)c(=O)n2C	0.71	-8	.	-0.5	1	3.5	.	.	.	.
COc1ccc(Nc2nc(-c3cc4cccc(OC)c4oc3=O)cs2)cc1	0.72	28	3.3	0.2	0	2.5	-6	-5	-0.2	i
COC(c1ccccc1)c1nnc(CCC(=O)N(C)CCOc2ccccc2)o1 (centres undefined)	0.6	18	1.5	-0.1	-9	0.8	3	7	3.8	i
CC(NC(=O)c1cccnc1)C(=O)O (centres undefined)	0.72	-6	0.7	0.1	-6	6.4	10	1	7.6	i
COc1cc(Cl)c(C)cc1NC(=O)CSc1nc2ccccc2o1	0.69	.	.	0.5	-1	0.8	.	.	.	.
Cc1ccc(SCCC(=O)NC(C(C)C)C(C)C)cc1	0.69	-6	-0.5	0.2	1	5.0	-7	-10	-1.6	i
CC(O)CC(C(=O)NNc1ccccc1)C(=O)NNc1ccccc1 (centres undefined)	0.69	1	-1.5	-0.5	.	3.4	16	8	1.2	i
CCOC(=O)N1CCN(C(=O)CN(C)S(=O)(=O)c2ccc3c(c2)c(=O)n(C)c(=O)n3C)CC1	0.65	-4	-0.4	0.1	-3	0.0	14	7	2.1	i
CCc1ccc2c(c1)/C(=C/C(=O)c1cccs1)C(=O)N2	0.62	-1	.	0.4	-11	0.0	.	.	.	.
COc1ccc(NC(=O)CN(C)S(=O)(=O)c2cccc3cccnc23)cc1	0.71	-17	3.8	1.4	.	5.3	-3	-8	-8.2	i
FC(F)(F)c1ccc2nnc(-c3c(Cl)cccc3Cl)n2c1	0.7	9	.	0.4	-18	0.0	.	.	.	.
COc1cc(-c2nc(CN3CCN(CC(C)C)C(=O)[C@@H]3C)c(C)o2)ccc1F	0.73	7	-7.2	0.6	1	3.8	1	9	1.3	i
Cc1ccc(NC(=O)c2ccc([N+](=O)[O-])o2)cc1S(=O)(=O)N1CCOCC1	0.68	9	3.0	0.5	94*	2.6	-23*	-3.6*	-1.5*	.
c1ccc(Cc2nc3ccccc3n2Cc2ccccc2)cc1	0.7	15	.	-0.5	4	2.6	.	.	.	.
NNC(=O)c1ccc(Cn2cc(Cl)cn2)cc1	0.61	11	.	0.8	-3	0.8	.	.	.	.
Cn1c(Cc2ccccc2)nnc1SCC(=O)Nc1ccc(N2CCOCC2)cc1	0.67	-2	-6.5	-2.1	4	1.5	1	7	-1.0	i
Cc1cc(NS(=O)(=O)c2ccc(NC(=O)CSc3nc4sc(C)c(C)c4c(=O)[nH]3)cc2)no1	0.67	-3	0.3	0.8	-8	7.6	10	7	6.0	i
Cc1cc(C(=O)N/N=C/c2ccc([N+](=O)[O-])s2)n[nH]1	.	57*	-0.5	-0.6	.	.	-1	-2	12	i
C=CCC(C#Cc1ccccc1)N(C)C (centres undefined)	0.78	-9	.	0.8	-1	1.4	.	.	.	.
O=[N+]([O-])c1ccc(Nc2ccc(N3CCOCC3)cc2)c([N+](=O)[O-])c1	0.72	7	-4.6	1.7	2	7.9	12	6	0.7	i
Cc1ccc(S(=O)(=O)N(C)CC(=O)OCC(=O)N2CCCC2=O)cc1	0.7	-1	-2.9	-0.3	-6	0.7	8	-2	0.9	i
COc1ccc(CCNC(=O)C(=O)NCCOc2ccccc2)cc1OC	0.67	-3	.	0.1	-5	1.2	.	.	.	.
CC1(C)CC(=O)C(CC2CCCCC2=O)C(=O)C1 (centres undefined)	0.66	-13	.	0.4	0	0.2	11	-10	-1.0	i

From PubChem BioAssay

Only part of the results is shown; count on the stated rates, not on these rows.
